Screening data as filed in PubChem.
Sa growth inh: S. aureus growth inhibition at 42 and 30 °C, primary screen, LtaS inhibitor project, RN4220, two temperatures. OD600, 20 h, 42 °C; stronger effect = lower value. 170,000 compounds, 0.53% hits. AID 720641, 2013. relative growth, % (no concentration beside the values);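 active means growth at 42 °C up to 50% and 20 or more points under that at 30 °C, or under 10% at both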;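 further: 300 nL library stock went into each well; scaled to the means of positive and negative controls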
GIV-Gai inh: inhibitors of GIV peptide binding to Galpha-i3, primary screen, biochemical, fluorescence polarization, FITC-GIV GBA peptide, rat Galphai3; Guanine nucleotide-binding protein G(i) subunit alpha-3 (Rattus norvegicus), P08753; 90 min; stronger effect = lower value; scaled: aluminum fluoride 0%, vehicle 100%; percent of control (FP), % (test concentration not listed); 210,000 compounds, 0.42% hits; AID 1224905, 2016;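 active means replicate mean at 85% of control or lower, very high polarization wells dropped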;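 further: wells of about 15 µL received 100 nL stock; the first replicate is given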
Target sequence (P08753 whole entry, looked up): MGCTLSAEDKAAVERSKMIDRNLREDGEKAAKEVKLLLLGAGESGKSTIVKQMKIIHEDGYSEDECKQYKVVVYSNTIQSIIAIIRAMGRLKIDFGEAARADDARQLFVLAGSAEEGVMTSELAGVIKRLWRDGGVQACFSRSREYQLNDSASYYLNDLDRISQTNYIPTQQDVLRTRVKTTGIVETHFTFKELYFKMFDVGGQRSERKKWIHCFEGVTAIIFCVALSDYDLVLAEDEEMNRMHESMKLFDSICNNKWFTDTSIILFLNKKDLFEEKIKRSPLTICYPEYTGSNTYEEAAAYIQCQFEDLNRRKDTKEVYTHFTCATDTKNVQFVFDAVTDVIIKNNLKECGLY
HCMV UL50-53 inh: inhibitors of HCMV UL50-UL53 interaction, biochemical, HTRF | HCMV UL50-UL53 nuclear egress complex (human cytomegalovirus) | normalized percent inhibition | inhibition, % (no concentration beside the values) | 190,000 compounds, 0.15% hits | AID 1918969, 2023;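 active means both replicates at 50% or more, plus weaker picks with an unusually low signal ratio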;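 further: stock transfer was 100 nL into about 20 µL; 0% = negative control wells and 100% = wells with untagged competitor protein; inactives centre near -12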
Sa growth inh second temp: recorded beside Sa growth inh, whose call it bears; relative growth, %; measured here: growth at 30 °C;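 optical density after 20 h as mean of two plates; 100% = untreated growth and lower means inhibition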
* = called active by the depositor; & = joins results of further samples.

Cc1nc2c(C(=O)NCCc3ccccc3Cl)c[nH]n2c(=O)c1Cl was read as Sa growth inh 106, GIV-Gai inh 99 and Sa growth inh second temp 81.
COC(=O)CSC1=C(C#N)C(=O)NC(/C=C/c2ccccc2)S1 (stereo not drawn) was read as Sa growth inh 84, GIV-Gai inh 102 and Sa growth inh second temp 90.
For COc1ccc(-c2nc3n(c(=O)c2C#N)CCS3)cc1 the results were Sa growth inh 111, GIV-Gai inh 105, HCMV UL50-53 inh -52 and Sa growth inh second temp 92.
For Cc1ccc(C)c(S(=O)(=O)N2CCCN(C(=O)c3nonc3N)CC2)c1 the results were GIV-Gai inh 104 and HCMV UL50-53 inh 6.
For Cc1ccc(Cl)cc1NC(=O)/C(C#N)=C/c1c(C)n(Cc2ccccc2)c2ccccc12 the results were Sa growth inh 106, GIV-Gai inh 110, HCMV UL50-53 inh -60 and Sa growth inh second temp 81.
`CCOc1ccc(C2=NC(c3cccs3)=Nc3ccc(CC)cc3N2)cc1OCC` gave Sa growth inh 92, GIV-Gai inh 101, HCMV UL50-53 inh -19 and Sa growth inh second temp 81.
For O=C1c2cccc3c(N4CCCCC4)ccc(c23)C(=O)N1c1ccccn1 the results were Sa growth inh 93, GIV-Gai inh -29*, HCMV UL50-53 inh -120 and Sa growth inh second temp 82.
Screening CCc1ccc(C(=O)NCC2(c3ccccc3)CCOCC2)o1 returned Sa growth inh 92, GIV-Gai inh 104, HCMV UL50-53 inh 21 and Sa growth inh second temp 88.
O=C(CSc1nnc2c(n1)[nH]c1ccccc12)OCN1C(=O)c2ccccc2C1=O was read as Sa growth inh 78, GIV-Gai inh 98, HCMV UL50-53 inh -45 and Sa growth inh second temp 78.
Screening COc1ccc(-c2noc(CNC(C)(C)C)n2)cc1OC returned Sa growth inh 109, GIV-Gai inh 99, HCMV UL50-53 inh -2 and Sa growth inh second temp 78.
Cc1ccccc1CN1C(=O)c2ccccc2S(=O)c2ccc(C(=O)NCc3ccc4c(c3)OCO4)cc21 (stereo not drawn) was read as Sa growth inh 121, GIV-Gai inh 100&99, HCMV UL50-53 inh -14&-7 and Sa growth inh second temp 97.
Screening O=C(NC1CCCCC1)c1sc2ccccc2c1Cl returned GIV-Gai inh 105 and HCMV UL50-53 inh -11.
`CCCC(=O)Nc1cccc(-c2nc3cc(C)c(C)cc3o2)c1C` gave Sa growth inh 98, GIV-Gai inh 105, HCMV UL50-53 inh -22 and Sa growth inh second temp 86.
`CCOC(=O)c1cnc(=O)[nH]c1N` gave Sa growth inh 102, GIV-Gai inh 99, HCMV UL50-53 inh -6 and Sa growth inh second temp 88.
Screening CS(=O)(=O)Nc1cccc(C2=NN(C(=O)CCC(=O)O)C(c3cccc(F)c3)C2)c1 (stereo not drawn) returned Sa growth inh 113, GIV-Gai inh 108, HCMV UL50-53 inh 10 and Sa growth inh second temp 105.

Entries listed so far containing an NH in an aromatic ring, in the order listed:
Cc1nc2c(C(=O)NCCc3ccccc3Cl)c[nH]n2c(=O)c1Cl was read as Sa growth inh 106, GIV-Gai inh 99 and Sa growth inh second temp 81.
O=C(CSc1nnc2c(n1)[nH]c1ccccc12)OCN1C(=O)c2ccccc2C1=O was read as Sa growth inh 78, GIV-Gai inh 98, HCMV UL50-53 inh -45 and Sa growth inh second temp 78.
`CCOC(=O)c1cnc(=O)[nH]c1N` gave Sa growth inh 102, GIV-Gai inh 99, HCMV UL50-53 inh -6 and Sa growth inh second temp 88.

Other compounds:
Cc1cc(NC(=O)c2ccc3c(c2)N(Cc2cccc(Cl)c2)C(=O)c2ccccc2S3(=O)=O)ccc1Br was read as Sa growth inh 91, GIV-Gai inh 97, HCMV UL50-53 inh -15 and Sa growth inh second temp 93.
Screening Cc1ccc(-n2c(SCC(=O)NC(C)(C)C)nc(O)cc2=O)cc1 returned Sa growth inh 102, GIV-Gai inh 230, HCMV UL50-53 inh 4 and Sa growth inh second temp 75.
For Cc1ccc(-n2nc(C)c3c(C)cc(=O)n(CC(=O)NC(C)c4ccccc4)c32)cc1 (stereo not drawn) the results were Sa growth inh 98, GIV-Gai inh 102 and Sa growth inh second temp 98.
`COc1cc(C)nc(NN)n1` gave Sa growth inh 118, GIV-Gai inh 102, HCMV UL50-53 inh -12 and Sa growth inh second temp 84.
CCCn1c(=O)c2sccc2n2c(CCC(=O)NCCOC)nnc12 was read as GIV-Gai inh 96 and HCMV UL50-53 inh -23.
C=CCn1nnnc1SCC(=O)c1ccc(Cl)c(Cl)c1 was read as Sa growth inh 79, GIV-Gai inh 102, HCMV UL50-53 inh -40 and Sa growth inh second temp 58.
Screening Oc1ccccc1-c1ccnc2cc(-c3ccc(Cl)cc3)nn12 returned GIV-Gai inh 104 and HCMV UL50-53 inh -8.
CCOC(=O)c1ccc2c(c1)nc(SCc1nc3ccccc3s1)n2CC was read as Sa growth inh 100, HCMV UL50-53 inh 1 and Sa growth inh second temp 95.
For CCOC(=O)c1c(O)cc2ccccc2c1O the results were Sa growth inh 77, GIV-Gai inh 100, HCMV UL50-53 inh -94 and Sa growth inh second temp 93.
For CC(C)(C)NC(=O)c1cnc2n(c1=O)CCS2 the results were Sa growth inh 81, GIV-Gai inh 101, HCMV UL50-53 inh -33 and Sa growth inh second temp 81.
Cc1ccc(-c2cc3c(SCC(=O)NC4CCCC4)nccn3n2)cc1 was read as GIV-Gai inh 106 and HCMV UL50-53 inh -10.
Screening Nc1ccc2nc(SCc3cccc(F)c3)sc2c1 returned Sa growth inh 83, GIV-Gai inh 104 and Sa growth inh second temp 81.
For Cc1c(C(=O)OC(C)C(=O)N(C)c2ccccc2)oc2ccccc12 (stereo not drawn) the results were Sa growth inh 107, HCMV UL50-53 inh -29 and Sa growth inh second temp 94.
COc1ccc(CNc2nc3nc(CNc4ccc(Br)cc4)cc(=O)n3[nH]2)cc1OC was read as GIV-Gai inh 102 and HCMV UL50-53 inh -21.
Screening COc1cccc(NC(=O)CCNC(=O)Cn2cnc3ccccc3c2=O)c1 returned Sa growth inh 94, GIV-Gai inh 100, HCMV UL50-53 inh -6 and Sa growth inh second temp 86.

Sorted by number of heavy atoms (low to high): three of the compounds above
Screening Nc1ccc2nc(SCc3cccc(F)c3)sc2c1 returned Sa growth inh 83, GIV-Gai inh 104 and Sa growth inh second temp 81.
Screening Oc1ccccc1-c1ccnc2cc(-c3ccc(Cl)cc3)nn12 returned GIV-Gai inh 104 and HCMV UL50-53 inh -8.
CCOC(=O)c1ccc2c(c1)nc(SCc1nc3ccccc3s1)n2CC was read as Sa growth inh 100, HCMV UL50-53 inh 1 and Sa growth inh second temp 95.

Next section.
For CC1=NN(Cc2ccccc2)C(=O)/C1=C\c1ccc(N(C)C)cc1 the results were Sa growth inh 92, GIV-Gai inh 98, HCMV UL50-53 inh -114 and Sa growth inh second temp 99.
Cc1nn2cc(-c3ccc(-c4ccccc4)cc3)nc2s1 was read as Sa growth inh 96, HCMV UL50-53 inh 13 and Sa growth inh second temp 101.
`CCCCN1C(=O)C(=O)/C(=C(\O)c2ccc(OC)cc2)C1c1ccc2c(c1)OCO2` (stereo not drawn) gave Sa growth inh 91, GIV-Gai inh 98, HCMV UL50-53 inh -16 and Sa growth inh second temp 89.
`c1ccc2c(c1)oc1c(N3CCNCC3)ncnc12` gave Sa growth inh 99, HCMV UL50-53 inh -14 and Sa growth inh second temp 91.
For COc1ccc(-c2cc(C)nc(N)c2C#N)cc1 the results were Sa growth inh 101, HCMV UL50-53 inh -12 and Sa growth inh second temp 80.
`O=C(CSc1nc2c([nH]c3ccccc32)c(=O)n1-c1ccc(Cl)cc1)NCC1CCCO1` (stereo not drawn) gave Sa growth inh 90, GIV-Gai inh 96 and Sa growth inh second temp 83.
`Cc1ccc(N2C(=O)CC(N3CCN/C3=C3/CC/C(=C\c4ccccc4)C3=O)C2=O)cc1` (stereo not drawn) gave Sa growth inh 115, HCMV UL50-53 inh -6 and Sa growth inh second temp 112.
O=C1/C(=C/c2c[nH]c3ccccc23)Sc2ccccc21 was read as GIV-Gai inh 114 and HCMV UL50-53 inh -30.
Screening Cc1ccc(-c2cc(=O)n3[nH]c(C)nc3n2)cc1 returned GIV-Gai inh 96 and HCMV UL50-53 inh -8.
For COc1ccc(NC(=O)CSCc2cc(=O)[nH][nH]2)cc1 the results were Sa growth inh 92, GIV-Gai inh 102, HCMV UL50-53 inh -5 and Sa growth inh second temp 90.
Screening COc1cccc(/C=N/NC(=O)c2oc3nc(-c4ccccc4)cc(-c4ccco4)c3c2N)c1 returned Sa growth inh 107, GIV-Gai inh -54*, HCMV UL50-53 inh -32 and Sa growth inh second temp 74.
`O=C1/C(=C\c2ccco2)N=C(SCc2nc3sc4c(c3c(=O)[nH]2)CCCC4)N1c1ccc(OC(F)F)cc1` gave Sa growth inh 65, HCMV UL50-53 inh -10 and Sa growth inh second temp 57.
N#Cc1ccc(CSc2nc(-c3cccs3)c3c(c2C(=O)O)CCCC3)cc1 was read as Sa growth inh 0.1*, HCMV UL50-53 inh -1 and Sa growth inh second temp -0.3*.
O=C(Cn1cc(C(F)(F)F)ccc1=O)N1CCCC1 was read as Sa growth inh 104, HCMV UL50-53 inh -15 and Sa growth inh second temp 94.
CN(C1CCCCC1)S(=O)(=O)C1CCS(=O)(=O)C1 (stereo not drawn) was read as Sa growth inh 109, GIV-Gai inh 101 and Sa growth inh second temp 96.

Brought forward from above: two entries; new compounds follow.
O=C(Cn1cc(C(F)(F)F)ccc1=O)N1CCCC1 was read as Sa growth inh 104, HCMV UL50-53 inh -15 and Sa growth inh second temp 94.
CN(C1CCCCC1)S(=O)(=O)C1CCS(=O)(=O)C1 (stereo not drawn) was read as Sa growth inh 109, GIV-Gai inh 101 and Sa growth inh second temp 96.
For COc1ccc(-c2cc3ncc(C(=O)c4cc(Cl)ccc4O)cn3n2)cc1 the results were GIV-Gai inh 96 and HCMV UL50-53 inh -23.
For CCCCn1ccnc1C(=O)c1cc(Cl)cc(Cl)c1 the results were Sa growth inh 91, HCMV UL50-53 inh -13 and Sa growth inh second temp 106.
`CC(=O)On1cc(F)c(=O)[nH]c1=O` gave Sa growth inh 0.7*, HCMV UL50-53 inh -7 and Sa growth inh second temp 0.2*.
For CCOC(=O)c1ccc(-c2ccc(/C=C(\C#N)C(=O)Nc3ccc(C)cc3)o2)cc1 the results were Sa growth inh 108, GIV-Gai inh 99 and Sa growth inh second temp 72.
`CCCCCCn1c(COc2ccccc2F)nnc1SCC(=O)/C(C#N)=C(\C)N` gave Sa growth inh 90, HCMV UL50-53 inh -22 and Sa growth inh second temp 91.
O=C(O)c1ccccc1S(=O)O was read as Sa growth inh 104, GIV-Gai inh 102, HCMV UL50-53 inh 9 and Sa growth inh second temp 99.
`COc1ccc(NC(=O)CSc2nc(-c3ccc(F)cc3)c3cccc(C)c3n2)cc1` gave Sa growth inh 113, GIV-Gai inh 99, HCMV UL50-53 inh -17 and Sa growth inh second temp 89.
`Cc1c(Cl)cccc1NC(=O)c1oc2ccc(S(=O)(=O)N3CCCCCC3)cc2c1C` gave Sa growth inh 89, GIV-Gai inh 98 and Sa growth inh second temp 82.
O=C(Nc1ccccc1C(=O)N/N=C/c1ccco1)c1ccc(Cl)cc1 was read as Sa growth inh 92, GIV-Gai inh 106, HCMV UL50-53 inh -17 and Sa growth inh second temp 96.
Screening Cc1ccc2c(=O)cc(C(=O)Nc3sc4c(c3C(=O)NCc3cccnc3)CCCC4)oc2c1 returned Sa growth inh 106, GIV-Gai inh 107, HCMV UL50-53 inh -7 and Sa growth inh second temp 94.
`O=C(NCc1ccco1)c1ncoc1-c1ccc2ccccc2c1` gave Sa growth inh 108, GIV-Gai inh 99, HCMV UL50-53 inh -10 and Sa growth inh second temp 88.
Screening Cc1ccc(CC(=O)NCCN(C)C)cc1 returned Sa growth inh 100, GIV-Gai inh 108, HCMV UL50-53 inh 0 and Sa growth inh second temp 99.
`CCOC(=O)c1c(C)[nH]c2ccc(C)cc2c1=O` gave Sa growth inh 71, GIV-Gai inh 98, HCMV UL50-53 inh -12 and Sa growth inh second temp 82.
`C/C(=C\C(=O)c1ccc(C)o1)Nc1ccc(C(=O)O)cc1C` gave Sa growth inh 134, GIV-Gai inh 120, HCMV UL50-53 inh -18 and Sa growth inh second temp 99.
CN1CC23C=CC(O2)C(C(=O)O)C3C1=O (stereo not drawn) was read as Sa growth inh 105, GIV-Gai inh 99, HCMV UL50-53 inh 0 and Sa growth inh second temp 98.
CC1CN(S(=O)(=O)c2cccc(C(=O)NCC(c3ccco3)N(C)C)c2)CC(C)O1 (stereo not drawn) was read as Sa growth inh 77, HCMV UL50-53 inh -7 and Sa growth inh second temp 92.
Cc1nc2c(-c3ccc(F)cc3)c(C)nn2c(C)c1CCC(=O)Nc1cccnc1 was read as GIV-Gai inh 95 and HCMV UL50-53 inh -21.
For COc1ccc(C(=O)NCCc2csc(-c3ccc(Cl)cc3)n2)cc1 the results were Sa growth inh 128, GIV-Gai inh 104 and Sa growth inh second temp 89.
CN(C)S(=O)(=O)c1ccc(S(=O)(=O)N2CCCC(C(=O)NC(C)(C)C)C2)cc1 (stereo not drawn) was read as Sa growth inh 97, GIV-Gai inh 103, HCMV UL50-53 inh 11 and Sa growth inh second temp 106.
